Source: PubChem BioAssay
RGS16-Gao HTS = modulators of RGS16 binding to Galphao, primary screen, biochemical, human proteins, multiplexed bead flow cytometry | AID 1441, 2008 | binding response (% of control), % at 10 µM | 220,000 compounds, 0.38% hits | bead-based flow cytometry RGS16-Galphao binding, fluorescence; actives lie on both sides | Regulator of G-protein signaling 16 (Homo sapiens) + Guanine nucleotide-binding protein …;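 active = below 25% or above 175%, edge rows of some plates excepted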;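 also: Galphao activated by GDP with aluminum fluoride before binding; 100% = wells without compound and 0% = beads without RGS; some results beyond the cut were filed as inactive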
Target sequence (O15492 whole entry, looked up): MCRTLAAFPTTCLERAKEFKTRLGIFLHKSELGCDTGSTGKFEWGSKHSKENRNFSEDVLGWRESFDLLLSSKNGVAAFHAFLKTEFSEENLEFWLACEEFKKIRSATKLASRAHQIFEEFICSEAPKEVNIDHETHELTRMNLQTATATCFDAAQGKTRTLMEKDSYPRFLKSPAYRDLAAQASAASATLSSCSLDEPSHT
Target sequence (P09471 whole entry, looked up): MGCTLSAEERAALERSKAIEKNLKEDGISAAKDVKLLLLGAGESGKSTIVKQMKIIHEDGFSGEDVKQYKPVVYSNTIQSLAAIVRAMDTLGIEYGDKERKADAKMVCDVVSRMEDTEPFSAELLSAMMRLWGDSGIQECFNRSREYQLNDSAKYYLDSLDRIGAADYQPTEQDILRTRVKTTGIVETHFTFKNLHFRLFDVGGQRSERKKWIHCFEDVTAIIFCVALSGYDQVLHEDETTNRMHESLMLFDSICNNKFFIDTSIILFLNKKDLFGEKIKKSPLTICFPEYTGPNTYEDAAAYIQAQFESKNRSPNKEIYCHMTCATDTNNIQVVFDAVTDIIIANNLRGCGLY
PKD1 kinase inh = inhibitors of human PKD1 kinase, biochemical, fluorescence polarization; 200,000 compounds, 0.056% hits; inhibition, %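 (about 10 µM by stock and volumes)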; PKD1 kinase fluorescence polarization assay; AID 797, 2007;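 active = inhibition of 50% or more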;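 also: controls were vehicle for no effect and a reference inhibitor for full effect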
GALR2 agonist = GALR2 receptor agonists, primary screen, cell-based. 140,000 compounds, 0.48% hits. Galanin receptor type 2 (Homo sapiens), O43603. GALR2-expressing cells, agonist activation read-out. activation, %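 (tested at 5 µM)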. AID 803, 2007;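 active = above mean plus 3 SD of all compounds, about 5% in these data, not always enough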;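 also: 0% = vehicle buffer wells and 100% = reference agonist at full effect; tested in CHO reporter cells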
Target sequence (O43603 whole entry, looked up): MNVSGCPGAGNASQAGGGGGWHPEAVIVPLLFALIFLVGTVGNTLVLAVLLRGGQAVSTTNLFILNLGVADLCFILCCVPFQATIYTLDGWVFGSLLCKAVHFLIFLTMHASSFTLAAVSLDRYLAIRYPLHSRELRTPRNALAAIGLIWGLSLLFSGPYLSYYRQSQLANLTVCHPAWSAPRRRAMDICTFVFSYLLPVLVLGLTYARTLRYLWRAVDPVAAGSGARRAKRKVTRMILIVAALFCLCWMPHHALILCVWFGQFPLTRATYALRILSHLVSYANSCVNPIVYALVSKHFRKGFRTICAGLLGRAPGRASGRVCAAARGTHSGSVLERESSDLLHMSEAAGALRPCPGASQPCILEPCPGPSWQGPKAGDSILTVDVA
Insulin prom inh = inhibitors of insulin promoter-driven GFP, primary screen, imaging, TRM-6 cells (human fetal islet line), eGFP reporter, cell count | reporter expression induced with tamoxifen | inhibition, % at 2 µM | 130,000 compounds, 0.9% hits | AID 1273, 2008;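 active = inhibition above the mean plus 3 SD, with well images judged a real hit on visual review, cut at about 60% in these data, passing the limit was not always enough; inconclusive = inhibition over the cutoff but images rejected on review; inactive = inhibition not above the cutoff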
HSV augment = enhancers of HSV replication in host cells, fold increase, host cell viability | HSV replication augmentation in cells | maximum fold increase | 220,000 compounds, 0.005% hits;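 active = peak rise of 1.5-fold or more in the series; inconclusive = self-fluorescent or not available for retest; tested in PC3 cells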;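 also: first round at 10 µM; read as green reporter fluorescence; hits show the peak of a series up to 25 µM; 1 = signal of infected wells without compound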
Insulin prom inh cell count = also measured in Insulin prom inh; calls as there; normalized cell count, %; measured here: cell count, toxicity; reference of the scale not given here;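 cells exposed to compound for 48 h; stained nuclei by imaging scaled within each plate; lower means fewer cells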
HSV augment primary fold = further read-out of HSV augment, marked with its call; fold increase; compound at 10 µM; measured here: primary screen fold increase 10 uM; tested in PC3 cells;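 GFP signal in the first replicate; 1 = infected wells without compound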
* = called active by the depositor. No enrichment for hits; any-hit rate near 1.3%.

`CCOC(=O)c1c(C)nn(Cc2ccccc2)c1N` gave RGS16-Gao HTS 102, PKD1 kinase inh 2, GALR2 agonist 5.7, Insulin prom inh 23, HSV augment inactive, Insulin prom inh cell count 133 and HSV augment primary fold 1.1.
Cc1cccc(NC(=S)NC2CC3CCCC(C2)N3Cc2cccs2)c1C (centres undefined) was read as RGS16-Gao HTS 98, PKD1 kinase inh 8, GALR2 agonist -1.8, HSV augment inactive and HSV augment primary fold 1.1.
Screening CCOc1ccc(N2CCCn3c2nc2c3c(=O)n(CCc3ccccc3)c(=O)n2C)cc1 returned RGS16-Gao HTS 102, PKD1 kinase inh 4, HSV augment inactive and HSV augment primary fold 1.
Screening CC(=O)NC(=S)Nc1ccc(S(=O)(=O)Nc2ncccn2)cc1 returned RGS16-Gao HTS 100, HSV augment inactive and HSV augment primary fold 0.93.
For CCOc1ccc(C(C)=O)cc1CN1C(=O)NC2(CCCCCCC2)C1=O the results were RGS16-Gao HTS 103, PKD1 kinase inh 2, HSV augment inactive and HSV augment primary fold 0.95.
For COC(=O)c1ccccc1NC(=O)C1CCN(S(C)(=O)=O)CC1 the results were RGS16-Gao HTS 101, PKD1 kinase inh -4, GALR2 agonist -2.0, Insulin prom inh 38, HSV augment inactive, Insulin prom inh cell count 94 and HSV augment primary fold 0.87.
Screening COc1cc(OC)cc(C(=O)Nn2cc(C(=O)Nc3ccc(F)cc3F)c3ccccc3c2=O)c1 returned RGS16-Gao HTS 105, PKD1 kinase inh -1, GALR2 agonist 0.1, Insulin prom inh 24, HSV augment inactive, Insulin prom inh cell count 135 and HSV augment primary fold 0.96.
`Cc1noc(N)c1C1(O)C(=O)N(C(C)C)c2ccccc21` (centres undefined) gave RGS16-Gao HTS 107, PKD1 kinase inh -8, Insulin prom inh 36, HSV augment inactive, Insulin prom inh cell count 121 and HSV augment primary fold 1.1.
O=C(COC(=O)c1ccccc1Br)NCCN1C(=O)CSC1=O was read as RGS16-Gao HTS 102, PKD1 kinase inh -9, HSV augment inactive and HSV augment primary fold 1.1.
CC(C)(C)c1ccc(CSc2nnc(-c3ccccc3NC(=O)c3ccccc3)o2)cc1 was read as RGS16-Gao HTS 73, PKD1 kinase inh -5, GALR2 agonist -0.4, Insulin prom inh 19, HSV augment inactive, Insulin prom inh cell count 99 and HSV augment primary fold 1.1.
O=C(N/N=C\C=C\c1ccc2c(c1)OCO2)C1COc2ccccc2O1 (centres undefined) was read as RGS16-Gao HTS 97, PKD1 kinase inh -6, GALR2 agonist -1.1, Insulin prom inh -260, HSV augment inactive, Insulin prom inh cell count 76 and HSV augment primary fold 0.82.
For Cc1ccc2nc(NNC(=O)c3ccc(S(=O)(=O)N4CCc5ccccc5C4)cc3)sc2c1 the results were RGS16-Gao HTS 65, PKD1 kinase inh -12, GALR2 agonist -2.9, HSV augment inactive and HSV augment primary fold 0.88.
`CC(C)(C)C(=O)NC(=S)N1CCCC1` gave RGS16-Gao HTS 69, PKD1 kinase inh -10, GALR2 agonist 0.9, Insulin prom inh -39, HSV augment inactive, Insulin prom inh cell count 102 and HSV augment primary fold 0.95.
`O=C(c1ccc(CN2CCOCC2)cc1)N1CCN(c2ccccc2F)CC1` gave RGS16-Gao HTS 107, PKD1 kinase inh 7, GALR2 agonist -1.5, Insulin prom inh -15, HSV augment inactive, Insulin prom inh cell count 81 and HSV augment primary fold 1.1.
Screening CC1=NNC(=O)C1CCC(=O)N/N=C/c1ccc(Cl)cc1 (centres undefined) returned RGS16-Gao HTS 108, PKD1 kinase inh -3, HSV augment inactive and HSV augment primary fold 0.91.
For c1nnn(C23CC4CC(CC(C4)C2)C3)n1 the results were RGS16-Gao HTS 102, PKD1 kinase inh -4, GALR2 agonist -2.2, Insulin prom inh -41, HSV augment inactive, Insulin prom inh cell count 90 and HSV augment primary fold 1.
`O=C(c1ccco1)N1CCN=C1SCc1cccc(Cl)c1` gave RGS16-Gao HTS 113, PKD1 kinase inh -8, GALR2 agonist -1.2, HSV augment inactive and HSV augment primary fold 1.
Screening COc1cc(OC)cc(C(=O)NCC(=O)OCC(=O)N2CC(C)CC(C)C2)c1 (centres undefined) returned RGS16-Gao HTS 105, PKD1 kinase inh 1, Insulin prom inh -42, HSV augment inactive, Insulin prom inh cell count 110 and HSV augment primary fold 0.94.
`Cn1c(=O)c2[nH]c(CNc3ccc(C(=O)O)cc3)nc2n(C)c1=O` gave RGS16-Gao HTS 108, HSV augment inactive and HSV augment primary fold 0.92.
Screening O=C(Oc1cccc(N2C(=O)CCC2=O)c1)c1ccccc1 returned RGS16-Gao HTS 96, PKD1 kinase inh -2, GALR2 agonist -2.2, Insulin prom inh -10, HSV augment inactive, Insulin prom inh cell count 186 and HSV augment primary fold 0.9.
Screening COc1ccc(C2N=C(c3ccccc3)C(C)(C)N2O)cc1 (centres undefined) returned RGS16-Gao HTS 105, PKD1 kinase inh 4, GALR2 agonist -1.8, Insulin prom inh -48, HSV augment inactive, Insulin prom inh cell count 98 and HSV augment primary fold 0.71.
`O=[N+]([O-])c1ccc2c(c1)c(-c1ccccc1)nc1nncn12` gave RGS16-Gao HTS 107, PKD1 kinase inh 3, Insulin prom inh -20, HSV augment inactive, Insulin prom inh cell count 127 and HSV augment primary fold 0.93.
Screening Cc1ccccc1-n1c(O)c(/C=C/C=Nc2ccccc2)c(=O)[nH]c1=O returned RGS16-Gao HTS 93, PKD1 kinase inh -19, GALR2 agonist -1.2, Insulin prom inh -20, HSV augment inconclusive and Insulin prom inh cell count 64.
COc1cc(C=O)ccc1OCCOCCOc1cc(C)ccc1Cl was read as RGS16-Gao HTS 107, PKD1 kinase inh -17, GALR2 agonist -1.8, Insulin prom inh 17, HSV augment inactive, Insulin prom inh cell count 41 and HSV augment primary fold 1.1.
CSc1n[nH]c(NCc2ccc(Cl)cc2)n1 was read as RGS16-Gao HTS 106, PKD1 kinase inh -8, GALR2 agonist -1.8, Insulin prom inh 34, HSV augment inactive, Insulin prom inh cell count 66 and HSV augment primary fold 0.88.
Screening COc1ccccc1CCNC(=O)CSc1ccc(-c2ccco2)nn1 returned RGS16-Gao HTS 95, PKD1 kinase inh 4, Insulin prom inh 8, HSV augment inactive, Insulin prom inh cell count 227 and HSV augment primary fold 0.88.
Screening Cc1cc(C(=O)N/N=C/c2ccc(Cl)c([N+](=O)[O-])c2)c(C)n1-c1ccc(F)cc1 returned RGS16-Gao HTS 100, PKD1 kinase inh -2, GALR2 agonist -0.5, Insulin prom inh -6, HSV augment inactive, Insulin prom inh cell count 116 and HSV augment primary fold 0.7.
CN(C)c1cccc2c1c(NC(=O)Nc1ccccc1)nn2C was read as RGS16-Gao HTS 95, HSV augment inactive and HSV augment primary fold 0.9.
O=C(c1cc(-c2cccs2)on1)N1CCc2ccccc2C1 was read as RGS16-Gao HTS 93, PKD1 kinase inh -5, GALR2 agonist -0.7, Insulin prom inh 40, HSV augment inactive, Insulin prom inh cell count 98 and HSV augment primary fold 0.83.
`c1coc(-c2nnc(SCc3cn4ccccc4n3)o2)c1` gave RGS16-Gao HTS 97, PKD1 kinase inh 7, GALR2 agonist 0.8, HSV augment inactive and HSV augment primary fold 0.87.
Screening CCCC1c2ccsc2CCN1C(=S)NC (centres undefined) returned RGS16-Gao HTS 101, HSV augment inactive and HSV augment primary fold 0.99.
For O=C(COc1ccc(Cl)c(Cl)c1)NN1C(=O)C2C(C1=O)C1C=CC2C12CC2 (centres undefined) the results were RGS16-Gao HTS 98, PKD1 kinase inh -5, Insulin prom inh -6, HSV augment inactive, Insulin prom inh cell count 167 and HSV augment primary fold 0.95.
Screening Cc1ccc2c(CSc3nnc(C4CC4)n3N)cc(=O)oc2c1 returned RGS16-Gao HTS 102, PKD1 kinase inh 4, GALR2 agonist -2.9, Insulin prom inh -7, HSV augment inactive, Insulin prom inh cell count 63 and HSV augment primary fold 0.85.
For CCOC(=O)c1cc(C#N)c(N2CCNCC2)nc1C(F)(F)F the results were RGS16-Gao HTS 103, HSV augment inactive and HSV augment primary fold 0.95.
COc1ccc(NC(=O)C(NC(C)=O)C(=O)NCc2ccccc2)cc1 (centres undefined) was read as RGS16-Gao HTS 100, PKD1 kinase inh -14, GALR2 agonist -1.7, Insulin prom inh -3, HSV augment inactive, Insulin prom inh cell count 112 and HSV augment primary fold 0.95.
Screening Cc1ccc(NC(=S)Nc2ncccc2C)c(C)c1 returned RGS16-Gao HTS 97, PKD1 kinase inh 8, GALR2 agonist -1.0, HSV augment inactive and HSV augment primary fold 0.69.
O=C(COc1ccccc1)NC(NC(=S)Nc1ccccc1O)C(Cl)(Cl)Cl (centres undefined) was read as RGS16-Gao HTS 101, PKD1 kinase inh -4, GALR2 agonist -0.3, Insulin prom inh -26, HSV augment inactive, Insulin prom inh cell count 68 and HSV augment primary fold 0.91.
`O=C(Cn1nnc(-c2ccc(Cl)cc2)n1)NC1CC2CCC1C2` (centres undefined) gave RGS16-Gao HTS 48, PKD1 kinase inh 10, GALR2 agonist -0.9, HSV augment inactive and HSV augment primary fold 0.94.
`C=CCSc1ncc(C(=O)OCC)c(N)n1` gave RGS16-Gao HTS 102, PKD1 kinase inh 11, Insulin prom inh 100*, HSV augment inactive, Insulin prom inh cell count 181* and HSV augment primary fold 0.94.
Screening CC(C)C(=O)NCc1cc(-c2ccccc2)no1 returned RGS16-Gao HTS 87, PKD1 kinase inh -1, Insulin prom inh -30, HSV augment inactive, Insulin prom inh cell count 129 and HSV augment primary fold 0.96.
CC1CCN(C(=O)C2CCC(C)(C(=O)O)C2(C)C)CC1 (centres undefined) was read as RGS16-Gao HTS 99, PKD1 kinase inh -3, GALR2 agonist 0.1, Insulin prom inh 27, HSV augment inactive, Insulin prom inh cell count 116 and HSV augment primary fold 0.94.
Screening Cc1sc2nc(C(C)C)nc(SCC(=O)NCc3ccco3)c2c1C returned RGS16-Gao HTS 91, PKD1 kinase inh 12, GALR2 agonist -3.1, Insulin prom inh 10, HSV augment inactive, Insulin prom inh cell count 97 and HSV augment primary fold 0.91.
`CCOC(=O)N1CCN(C(=O)CN(c2ccc(Cl)c(C(F)(F)F)c2)S(C)(=O)=O)CC1` gave RGS16-Gao HTS 102, PKD1 kinase inh 13, GALR2 agonist -1.8, HSV augment inactive and HSV augment primary fold 1.
For CC/C(=N/Nc1ccccc1C)c1cnnc(SC)n1 the results were RGS16-Gao HTS 120, PKD1 kinase inh -10, GALR2 agonist -2.5, Insulin prom inh 31, HSV augment inactive, Insulin prom inh cell count 104 and HSV augment primary fold 0.99.
Screening CCC(CO)NCc1cc(OC)c(OCC(=O)NCCc2ccccc2)cc1Br (centres undefined) returned RGS16-Gao HTS 113, PKD1 kinase inh 3, GALR2 agonist -0.1, HSV augment inactive and HSV augment primary fold 0.78.
Screening C=C1C(C(=O)Nc2ccc(OC)cc2)C1C(=O)Nc1ccc(OC)cc1 (centres undefined) returned RGS16-Gao HTS 95, HSV augment inactive and HSV augment primary fold 0.94.
Screening CC(C)(CO)NCC(O)Cn1cc(C=O)c2ccccc21 (centres undefined) returned RGS16-Gao HTS 97, PKD1 kinase inh 4, HSV augment inactive and HSV augment primary fold 1.

Grouped by structure: the entries above with a thiophene ring, fused or not
Cc1cccc(NC(=S)NC2CC3CCCC(C2)N3Cc2cccs2)c1C (centres undefined) was read as RGS16-Gao HTS 98, PKD1 kinase inh 8, GALR2 agonist -1.8, HSV augment inactive and HSV augment primary fold 1.1.
O=C(c1cc(-c2cccs2)on1)N1CCc2ccccc2C1 was read as RGS16-Gao HTS 93, PKD1 kinase inh -5, GALR2 agonist -0.7, Insulin prom inh 40, HSV augment inactive, Insulin prom inh cell count 98 and HSV augment primary fold 0.83.
Screening CCCC1c2ccsc2CCN1C(=S)NC (centres undefined) returned RGS16-Gao HTS 101, HSV augment inactive and HSV augment primary fold 0.99.
Screening Cc1sc2nc(C(C)C)nc(SCC(=O)NCc3ccco3)c2c1C returned RGS16-Gao HTS 91, PKD1 kinase inh 12, GALR2 agonist -3.1, Insulin prom inh 10, HSV augment inactive, Insulin prom inh cell count 97 and HSV augment primary fold 0.91.
